TRPML1 ag: agonists of human TRPML1 channel | TRPML1-expressing cells, Ca2+ dye fluorescence, FDSS; host cell line not named in the record; reference of the full effect not given here | activation, % (concentration not given with the values) | actives 0.12% (n = 410,000) | AID 624414; in the data active = activation above about 50%; inconclusive = about 30% to 50%; inactive = below about 30%; note: 0% is about no effect; the text of the record puts the active cut at 80%
Target sequence (Q9GZU1 whole entry, looked up): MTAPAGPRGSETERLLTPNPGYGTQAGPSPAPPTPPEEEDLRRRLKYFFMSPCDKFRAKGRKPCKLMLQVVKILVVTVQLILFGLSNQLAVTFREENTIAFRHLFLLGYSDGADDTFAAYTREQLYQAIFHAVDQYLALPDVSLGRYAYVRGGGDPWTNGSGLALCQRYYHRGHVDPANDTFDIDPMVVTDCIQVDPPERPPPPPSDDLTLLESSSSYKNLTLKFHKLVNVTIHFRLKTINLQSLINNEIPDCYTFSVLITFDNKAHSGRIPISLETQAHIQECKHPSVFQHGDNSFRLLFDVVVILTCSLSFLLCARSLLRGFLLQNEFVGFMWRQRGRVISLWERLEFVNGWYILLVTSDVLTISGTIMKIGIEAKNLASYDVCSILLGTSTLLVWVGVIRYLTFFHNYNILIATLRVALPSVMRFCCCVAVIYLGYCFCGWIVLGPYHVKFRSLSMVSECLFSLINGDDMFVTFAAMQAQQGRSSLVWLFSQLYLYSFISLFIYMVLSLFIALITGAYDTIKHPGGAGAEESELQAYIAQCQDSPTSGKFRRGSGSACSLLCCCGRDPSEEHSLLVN
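Agonist activity was taken from a 110 s kinetic Ca2+ dye read on the FDSS after pinning compounds onto TRPML1-DL cells. The cells were seeded at 1,500/well with Tet inducer, incubated about 16 h, then dye-loaded at room temperature.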
TRPML1 inh: blocks the human TRPML1 channel; activity change, negative = inhibition, % (test concentration not listed); Q9GZU1; TRPML1-inducible cells, Ca2+ dye fluorescence, FDSS; hits give low values; inhibition of EC80 agonist-evoked calcium signal; actives 0.02% (n = 390,000); in the data active means activity change below about -50%; inconclusive means about -30% to -50%; inactive means above about -30%;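 note: stimulus is agonist 54-4 at its EC80 concentration; % is set by controls: 0 for no effect and ±100 for the full control effect; compound concentration not given in the record; the text of the record puts the active cut at -80%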
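Tet-induced TRPML1-DL cells loaded with Ca8 no-wash calcium dye were read kinetically on FDSS. Compound addition was followed by EC80 agonist 54-4 (4 uM final); inhibition was read over 110 s.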
gsp antagonist: gsp mutant antagonism; gsp-mutant cells, cAMP HTRF, 30 min; control for the full effect not named in the record; Potency, µM (doses to about 76.9 µM), for the others: at the top dose activity change, negative = inhibition, actives largely listed as inhibitors; actives 0.4% (n = 340,000); AID 624288; active = falling curve of any shape with a large fitted effect; inconclusive = falling curve, mostly with a smaller effect; inactive = flat or rising curve; cell line not stated here;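 note: intracellular cAMP measured with PDE inhibitor Ro 20-1724 present during compound exposure; potency is the fitted concentration of half-maximal effect; % is set by controls: 0 for no effect and ±100 for the full control effect; nearly all actives have a fitted effect of over 65% in size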
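HTRF cAMP measurement after 30 min RT detection following 30 min, 37C compound treatment alongside […] (added as 300 uM solution) in G418-selected cells seeded at 2000/well and grown 16–24 h.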
gsp agonist: activates gsp, the McCune-Albright syndrome mutation | Potency, µM (highest dose often 76.9 µM), inactives show at the highest dose activation (cAMP increase), hits mostly activators | actives 0.13% (n = 340,000) | gsp mutant cells, cAMP HTRF, 30 min; control for the full effect not named in the record; active = well fitted activation curve with a large enough effect; inconclusive = small, poorly fitted or top-dose-only effect, or another doubt; inactive = no such curve, though single readings can be large or run the other way; cell line not stated here;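 note: phosphodiesterase inhibitor Ro 20-1724 added with compounds to block cAMP breakdown; potency is the fitted concentration of half-maximal effect; nearly all actives have a fitted effect of over 60% in size; about a fifth of the inactives were tested at one dose only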
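Cells stably selected in G418 were plated at 2000/well, grown 16-24 hr, then given compounds in DMSO with the PDE inhibitor […] (300 uM solution added) for 30 min at 37C; cAMP was read by HTRF.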
ClpP mod: qHTS Assay for Activators of ClpP; purified B. subtilis ClpP, FRET peptide cleavage, 20 min; Potency, µM (highest dose often 57.5 µM), inactives show at the top dose activity change, negative = active; actives 1.9% (n = 340,000); active = well fitted falling curve with a large enough effect; inconclusive = small, poorly fitted or top-dose-only effect; inactive = no such curve, though single readings can be large or run the other way; note: potency is the fitted concentration of half-maximal effect; the source files actives as falling curves though it sought activators and does not explain the sign; nearly all actives have a fitted effect of over 65% in size; many hits overshoot -100%
Target sequence (P80244 whole entry, looked up): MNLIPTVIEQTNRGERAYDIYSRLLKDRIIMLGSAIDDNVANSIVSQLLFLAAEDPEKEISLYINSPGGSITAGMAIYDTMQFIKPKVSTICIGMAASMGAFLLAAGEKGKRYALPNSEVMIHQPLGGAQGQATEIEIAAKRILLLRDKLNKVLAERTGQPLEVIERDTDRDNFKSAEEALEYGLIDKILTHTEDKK
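ClpP 10 microg/mL final, pH 8 Tris/KCl buffer with BSA, glycerol, Tween-20; compound pinned in; FRET-FV substrate; RT 20 min; Ex320/Em430; ΔFRET vs ADEP 5.8 microM, DMSO, no enzyme.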
Menin MLL FP FL: menin-MLL binding inhibition, fluorescein peptide; Fluorescence polarization, fluorescein-MLL peptide displacement from menin; FP activity change, % at 61.4 µM; 290,000 tested, under 10 active; AID 1766; inconclusive = falling polarisation curve, or a change in total fluorescence; inactive = total fluorescence flat and polarisation flat or rising; no compound was filed as active; the % refers to the polarisation; negative = inhibition;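 note: % of control where 0% means no effect; inhibitors lower the polarisation; unlabelled MLL peptide was the positive control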
* = called active by the depositor; ? = inconclusive; / = no result given; & = joins results of further samples; [ ] = remark or other dose.

SMILES	TRPML1 ag	TRPML1 inh	gsp antagonist	gsp agonist	ClpP mod	Menin MLL FP FL
CC(=O)c1ccc(NC(=O)C[n+]2ccccc2)cc1	0.3	-6	4%	2%	-2.5%	4.6
Cc1cc(C)n(CCC(=O)Nc2ccc3c(c2)OCCO3)n1	0.4	0	9%	-2%	-3.3%	-3.5
COc1ccc(C2CC(=O)c3sc(N)nc3C2)cc1 (stereo not drawn)	-0.2	-5	-10%	-6%	-1.0%	-1.1
COCCCNc1nnc(Cc2ccccc2)c2ccccc12	-0.9	-15	-6%	20%	/	-2.0
CCOC(=O)C1=NN(C(=O)COc2ccccc2)C(O)(c2ccc(Br)cc2)C1 (stereo not drawn)	3.7	10	19%	-1%	0.2%	-3.2
COc1ccc(CNC(=O)c2ccc3c(c2)CCN3S(=O)(=O)c2ccc(C)cc2)cc1	0.3	-7	/	/	0.2%	/
COc1ccccc1NC(=O)c1ccc(Cl)c(S(=O)(=O)NCc2ccco2)c1	2.2	7	-13%	-23%	-0.3%	/
CSCC[C@H](NC(=O)CCNC(C)=O)c1nc2ccccc2[nH]1	0.0	38	4%	1%	-0.7%	-1.4
COCC(=O)N1C[C@H]2CON(C)[C@H]2C[C@H]1c1cccc(-c2ccccc2)c1	-0.4	-10	/	-3%	-0.1%	/
CCCC(=O)N1CCN(c2ccc(NC(=O)c3ccco3)cc2)CC1	0.4	31	-17%	-31%[inhibitor]	-1.3%	4.5
CCCN1C(=O)c2ccccc2NC1c1ccc(OC)cc1OC (stereo not drawn)	1.0	2	4%	-2%	159%	-1.4
Nc1c(C(=O)NCCc2ccccc2)nnn1CC(=O)Nc1ccc(Cl)cc1	1.0	6	/	/	-16%	/
CCOC(=O)C1CCCN1C(=O)C1(NC(C)=O)CCCC1 (stereo not drawn)	-0.3	-4	13%	3%	-0.8%	/
Cc1ccccc1CN1C[C@@H]2C[C@@H](c3cn[nH]c3-c3ccccc3)N3CCC[C@@]23C1=O	-0.9	11	-24%	-9%[15.4 µM]	/	1.9
CC(C)NC(=O)c1cc2c(=O)n3ccccc3nc2s1	0.3	-1	8%	-62%[inhibitor]	1.6%	3.0
CCc1ccc(S(=O)(=O)NCc2cn3c(C)csc3n2)s1	0.1	-8	-6%	?	2.2%	-1.1
NC(=O)CC(NC(=O)Cc1ccc(Br)cc1)c1ccc(NCCOc2ccccc2)c([N+](=O)[O-])c1 (stereo not drawn)	0.0	-25	-2%	-13%	-0.3%	-1.4
CC(C)CC(=O)Nc1ccc2nc(SCC(=O)N3CCc4ccccc43)sc2c1	-0.4	44	/	/	-11%	/
CC(NC(=O)Nc1cccc(F)c1)c1ccc2c(c1)OCO2 (stereo not drawn)	0.1	18	-2%	-3%	-1.6%	2.4
CC(C)CCNC(=O)COC(=O)c1ccc(Br)o1	-0.6	2	3%	18%	1.0%	0.0
Cc1c(C(=O)C(=O)NCCCn2ccnc2)c2ccccc2n1C	-0.2	-2	13%	-3%[15.4 µM]	/	-2.6
COc1ccc(OCCNC(=O)c2ccccc2OCC(=O)Nc2ccc(NC(C)=O)cc2)cc1	-0.9	-7	-24%	8%[15.4 µM]	-1.8%	/
CCC(=O)Nc1cc(C(=O)O)ccc1Sc1ccc(C)cc1	-0.6	-8	-9%	-5%	0.6%	-1.0
Cc1csc2nc(COC(=O)c3cccc(N(C)C)c3)cc(=O)n12	-0.4	2	-18%	-4%	?	/
O=C(O)c1ccccc1NS(=O)(=O)c1cccc(C(F)(F)F)c1	3.1	6	-8%	6%	-5.0%	-1.7
CC(C)(C)c1cc(/C=N/O)cc(C(C)(C)C)c1O	0.3	4	-4%	-30%	11%	2.4
COc1cc(/C=N/NC(=O)C(=O)/C=C2\NC(C)(C)Cc3ccccc32)ccc1O	/	/	-38%	?	2.1%	0.4
CCc1nnc(NC(=O)c2ccc(-c3cc(C(F)(F)F)ccc3Cl)o2)s1	-0.5	5	-1%	?	2.0%	5.8
CC(C)Cc1cc(C(=O)N2CCCC(CO)(Cc3ccc(F)cc3F)C2)n[nH]1 (stereo not drawn)	1.5	-6	-2%	-26%	0.8%	-0.3
Cc1ccccc1-c1nc(CN2CCC(C(=O)NCc3cccs3)CC2)c(C)o1	-0.4	-2	17%	?	0.1%	-3.8
CC(C)OC(=O)CC1=NC(=O)CS1	-0.1	2	10%	5%	0.8%	4.6
COc1ccc(C(=O)C2CCCN(Cc3ccc(C#CCCO)cc3)C2)c(OC)c1 (stereo not drawn)	0.8	-8	1%	?	-0.4%	6.2
CC(=O)N1CCc2c(sc(NC(=O)CCS(=O)(=O)c3ccccc3)c2C#N)C1	0.2	20	3%	7%[15.4 µM]	0.3%	4.7
Cc1cc(OC(=O)c2cccc(Br)c2)c([N+](=O)[O-])c(=O)[nH]1	-0.7	31	0%	?	-0.6%	-4.2
CCOC(=O)C1CCN(C(=O)c2ccc(S(=O)(=O)Nc3ccccc3Cl)cc2)CC1	-0.8	15	-5%	-9%	-2.5%	/
Cc1n[nH]c(=O)n1-c1ccc(Oc2ccccc2)cc1	-0.1	-1	3%	-9%	1.7%	1.7
Cn1cnnc1SCC(=O)Nc1ccc2ccccc2c1	0.1	-11	7%	-36%[inhibitor]	-3.8%	/
O=c1[nH]c(CSc2nnc(-c3ccccc3)n2C2CCCCC2)nc2ccccc12	1.4	2	-10%	?	1.1%	4.4
C=CCOc1ccc(C2NC(=O)NC(C)=C2C(=O)OC)cc1 (stereo not drawn)	-0.9	2	1%	2%	-3.1%	5.7
COC(=O)N(C)c1nc2ccccc2s1	-0.4	-6	9%	-12%	6.1%	1.3
Cc1c(Cl)c([N+](=O)[O-])nn1CCCC(=O)Nc1c(Cl)cccc1Cl	-0.7	11	2%	-59%[inhibitor]	1.1%	3.0
CCCC(C(=O)NC1CCCC1)N(C(=O)c1snc(C(N)=O)c1N)c1ccc(OCC)cc1 (stereo not drawn)	1.5	12	-11%	9%[15.4 µM]	/	-1.2
N#Cc1ccccc1NC(=O)COC(=O)C1CCN(C(=O)c2ccc(Cl)cc2)CC1	0.4	-6	3%	2%	-1.6%	/
CCn1c(=O)cc(OCC(=O)NCc2ccccc2Cl)c2ccccc21	4.0	6	/	/	-5.4%	/
C[C@@H]1O[C@@H](O[C@H]2[C@H](Oc3cc(O)c4c(c3)OC(c3ccc(O)cc3)CC4=O)O[C@H](CO)[C@@H](O)[C@@H]2O)[C@H](O)[C@H](O)[C@H]1O (stereo partly drawn)	0.0	-6	-3%	/	0.1%	/
COc1ccc(NC(=O)c2c3c(nc4ccccc24)CCC3)cc1S(=O)(=O)N1CCOCC1	-0.3	3	1%	7%	-2.5%	-0.7
COc1ccc(N2CCN(CC(=O)Nc3sccc3C#N)CC2)cc1	0.9	0	-4%	27%	-1.8%	/
CCOC(=O)c1ccc(NC(=O)c2cccc(S(=O)(=O)N3c4ccccc4CC3C)c2)s1 (stereo not drawn)	-0.3	-5	-10%	1%	?	7.9
Oc1ccc(N=Nc2cccc(Cl)c2)cc1C=Nc1ccc(N2CCOCC2)cc1	0.1	-6	-9%	7%[15.4 µM]	-3.7%	3.2
COc1ccc(C2C(C(=O)Nc3ccccc3)=C(C)N=C3SCC(=O)N32)cc1 (stereo not drawn)	-0.2	9	-8%	-15%	-1.2%	3.6
C[n+]1c(/C=C/c2ccc(O)cc2)ccc2ccccc21	6.7	-5	?	-24%[15.4 µM]	0.6%	25
O=C(CSc1nc(-c2ccccc2Cl)ns1)Nc1ccc2c(c1)OCO2	-0.4	22	-14%	14%	?	0.8
COc1ccccc1C(=O)Nc1ccc2nc(SCC(=O)N(C)C)sc2c1	-0.4	11	-15%	-27%	-1.2%	1.8
O=P(O)(Cc1ccccc1)c1ccccc1	0.1	-17	/	27%	0.8%	/
Cc1c(C(=O)OCC(=O)NCc2ccccc2)oc2ccccc12	0.3	25	1%	-8%	-7.0%	/
CCOC(=O)CCC(=O)N1CCNC(=O)C1	-0.1	12	11%	-7%	1.4%	0.1
CC1(C)C(C(N)=O)C(=O)NC(=O)C1C(N)=O (stereo not drawn)	0.0	0	/	?	1.1%	/
CCC(C)[C@H](NC(=O)c1cc2cc(Cl)ccc2n1C)C(=O)N1CCC(C(=O)O)CC1 (stereo partly drawn)	0.5	6	-9%	11%	/	6.9
NC(=O)CSc1nnc(Cn2c(=O)sc3ccccc32)n1CCc1ccccc1	0.5	-14	10%	-1%	-1.1%	0.8
O=C1CSC(=S)N1N=Cc1ccc(Cl)cc1Cl	0.9	-2	2%	9%	-1.8%	/

One compound at a time, as listed above. Values in the order: TRPML1 ag, TRPML1 inh, gsp antagonist, gsp agonist, ClpP mod, Menin MLL FP FL
Results for `CC(C)OC(=O)CC1=NC(=O)CS1` → -0.1, 2, 10%, 5%, 0.8%, 4.6
Results for `Cc1n[nH]c(=O)n1-c1ccc(Oc2ccccc2)cc1` → -0.1, -1, 3%, -9%, 1.7%, 1.7
Results for `NC(=O)CC(NC(=O)Cc1ccc(Br)cc1)c1ccc(NCCOc2ccccc2)c([N+](=O)[O-])c1` (stereo not drawn) → 0.0, -25, -2%, -13%, -0.3%, -1.4
Results for `Nc1c(C(=O)NCCc2ccccc2)nnn1CC(=O)Nc1ccc(Cl)cc1` → 1.0, 6, /, /, -16%, /

Additional records:
SMILES	TRPML1 ag	TRPML1 inh	gsp antagonist	gsp agonist	ClpP mod	Menin MLL FP FL
Cc1ccccc1OCc1nnc(SCC(=O)O)n1Cc1ccccc1	0.2	6	12%	-10%[15.4 µM]	/	-2.1
COc1ccccc1C(=O)NC(C)c1nc2ccccc2[nH]1 (stereo not drawn)	1.2	-10	15%	7%	-39%	2.5
O=C(N/N=C/c1coc2ccccc2c1=O)c1cc(Br)ccc1O	0.0	6	8%	?	?	?
O=C(COC(=O)c1c2c(nc3ccccc13)CCCCC2)c1ccc(Cl)s1	-0.1	-4	-1%	0%[15.4 µM]	-1.5%	5.8
Cc1cc(Cl)ccc1C(O)c1ncc(-c2ccccc2Cl)[nH]1 (stereo not drawn)	0.7	-6	/	/	-1.3%	/
O=C(Cn1ncc2c([nH]c3ccccc32)c1=O)NCC1CCN(Cc2ccc(F)cc2)CC1	1.8&5.1	-18&20	9%	13%	-12%&-17%	5.2
CCOc1ccccc1C(=O)Nc1nnc(C(C)C)s1	-0.5	4	-6%	?	-3.4%	-2.2
Cc1ccc(C(=O)NNC(=O)c2ccccc2O)cc1S(=O)(=O)N1CCCCC1	-0.1	-4	-20%	1%[15.4 µM]	0.6%	/
C[C@H](CO)N1C[C@H](C)[C@@H](CN(C)S(=O)(=O)c2cccs2)Oc2c(NC(=O)c3ccncc3)cccc2C1=O	0.2	28	10%	/	-0.7%	/
COc1ccc(C(=O)Nc2nnc(S(=O)(=O)Cc3ccc(F)cc3)s2)cc1	0.7	-12	-7%	?	-10%	0.3

Assay outcomes: PubChem, National Center for Advancing Translational Sciences (NCATS)
